# PINK1 modulator: PINK1 expression modulation; PINK1 immunofluorescence, high-content cytometry, 24 h; actives 0.2% (n = 410,000); Potency, µM (highest dose often 76.6 µM), for the others: at the highest dose activation (PINK1 increase), most hits filed as activators; active = well fitted activation curve with a large enough effect; inconclusive = small, poorly fitted or top-dose-only effect; inactive = flat fitted curve, though single readings scatter; cell line not stated here;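 further: % of control where 0% means no effect; nearly all actives have a fitted effect of over 65% in size; a mitochondrial uncoupler was the plate control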
#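 Measures PINK1 amount and localization on or inside mitochondria by immunofluorescence. Stable cells get compounds at 5 concentrations for 24 hours before fixation and staining; CCCP controls included.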
# * hit, by the source's call. Potency means the concentration at half of the fitted maximal effect.
SMILES,PINK1 modulator
CC(C)(C)C1CCc2c(sc(NC(=O)c3ccncc3)c2C(=O)Nc2ccccc2Cl)C1 (stereo unspecified),0.6%
O=C(Cn1c(=O)c2cccn2c2ccccc21)NCc1ccccc1F,1.8%
CS(=O)(=O)N1CCc2cc(C(=O)NCc3ccccc3)ccc21,-0.4%
CCCC(=O)Nc1nnc(S(=O)(=O)N(C)c2ccccc2)s1,0.4%
CCOC(=O)c1c(NC(=O)COc2ccc(Cl)cc2Cl)sc2c1CCCCC2,0.0%
COc1ccc(-c2noc(-c3nnn(-c4cc(C)ccc4C)c3N)n2)cc1,0.1%
c1ccc(CSc2nc3ncccc3[nH]2)cc1,0.4%
CC(C)NC(=O)C1CCC(Cn2c(=O)c3sccc3n(CC(=O)Nc3ccccc3)c2=O)CC1 (stereo unspecified),-0.3%
Cc1ccc(Nc2nc(C)cc(C)n2)c(C(=O)O)c1,0.3%
CCn1c(=O)sc2cc(NS(=O)(=O)c3ccc(F)c(C)c3)ccc21,2.2%
Cc1ccc(-n2ncc3c(NC(C)c4ccccc4)ncnc32)cc1 (stereo unspecified),3.2%
CCCCCN1C(C(=O)c2ccccc2)=C(NC(C)=O)c2ccccc2S1(=O)=O,5.4%
COc1ccc(Cn2c(CNC(=O)Cc3cccc([N+](=O)[O-])c3)nc3cccnc32)cc1,2.0%
CC(=O)N1CCc2cc(S(=O)(=O)NC(Cc3ccccc3)C(=O)Nc3ccc(Cl)cc3)ccc21 (stereo unspecified),4.1%
CCc1ccc(NC(=O)Cn2c(=O)nc(-c3ccccc3F)c3cc(Cl)ccc32)cc1,3.9%
COc1ccc(CNC(=O)CCCCCn2c(=O)[nH]c3ccccc3c2=O)cc1,2.7%
Clc1ccc(-n2cccc2CN2CCOc3ccc(CN4CCOCC4)cc3C2)nc1,0.2%
CC(C)c1ccc(N(CC(=O)O)S(=O)(=O)c2ccc3[nH]c(=O)c(=O)[nH]c3c2)cc1,0.1%
O=C(CC1N=C2c3ccccc3N=C(SCc3ccccc3Cl)N2C1=O)NC1CCCCC1 (stereo unspecified),0.2%
Cc1cccc(CC(=O)NCCc2sc3nc(-c4ccc(F)cc4)nn3c2C)c1,-0.5%
Cc1ccsc1CN(C(=O)c1oc2ccccc2c1C)C1CCS(=O)(=O)C1 (stereo unspecified),-0.4%
CCSc1nc(-c2ccccc2OC)nc2c1Cc1c(CO)cnc(C)c1O2,1.2%
Cc1c(C)n(Cc2ccc(Cl)cc2)c2ccc(C(=O)N3CCN(c4ccccc4F)CC3)cc12,0.5%
COc1ccccc1N1CCN(S(=O)(=O)c2c(C)nc3sc(C)c(C)n3c2=O)CC1,2.8%
CC(C)Cc1nc2cc(NS(=O)(=O)N(C)C)cc(C(=O)N3CCOCC3)c2n1C,-0.5%
O=C(Nc1ccc(Cl)cc1F)c1oc(=O)c2ccccc2c1-c1ccccc1,2.2%
CN(C(=O)CSc1nc2ccc(NC(=O)c3ccccc3)cc2s1)c1ccccc1,-0.8%
CCOc1ccccc1C1Nc2ccccc2-c2nnc(SCc3ccccc3)nc2O1 (stereo unspecified),-0.7%
Cc1ccc2c(c1)C(c1ccc(F)cc1)N(C(=O)c1cccc(C(F)(F)F)c1)CC(=O)N2 (stereo unspecified),3.5%
COc1ccc2nc3sc(C(=O)Nc4cc(Cl)c(OC)cc4OC)cc3cc2c1,-0.1%
CC(C)c1ccc(OCC(O)CN2CCN(c3ccc(F)cc3)CC2)cc1 (stereo unspecified),1.8%
CCOc1cc(C(=O)Nc2ccc3oc(-c4ccc(F)cc4Cl)nc3c2)cc(OCC)c1OCC,2.2%
O=c1c(N2CCc3ccccc3C2)csc2ccc(Cl)cc12,0.5%
CCOc1ccc(NC(=O)Cn2c(CCC(=O)O)ccc2-c2ccc(Cl)cc2)cc1,-1.1%
O=C(OCc1cc(=O)n2nc(C3CC3)sc2n1)c1ccc(F)cc1,0.9%
Cc1nn2c(C(F)(F)F)cc(-c3ccc(OC(C)C)cc3)nc2c1C#N,0.0%
CCOC(=O)c1cccc(NC(c2nnc(-c3ccccc3)o2)c2ccccc2F)c1 (stereo unspecified),-0.1%
CCOc1ccc(Nc2c3c(nc4nncn24)CCC3)cc1,0.4%
Cc1ccc(C2=NN(CCC(=O)NCCc3cccc(C)c3)C(=O)CC2)cc1,-0.6%
CCCCOc1ccc(C(=O)NCCc2csc3nc(-c4ccccc4F)nn23)cc1,6.5%
Cc1ccc(C)c(N2CCN(C(=O)C3CCN(c4nc(-c5ccc(C(C)C)cc5)no4)CC3)CC2)c1,1.2%
CCOc1ccc(NC(=O)c2nc(S(=O)(=O)Cc3ccc(C)cc3)ncc2Cl)cc1,6.0%
CCc1nn(CC(=O)NCCc2ccc(OC)cc2OC)c(=O)c2cc3c(OC)cccc3n12,1.0%
Cc1cccc(N2C(=O)CS(=O)(=O)C23C(=O)N(Cc2c(F)cccc2Cl)c2ccccc23)c1 (stereo unspecified),-5.0%
COc1ccc(Cn2c(SCc3ccc(C(=O)NCc4cccs4)cc3)nc3cccnc32)cc1,-0.2%
O=C(COc1ccccc1C(=O)Nc1ccccc1)Nc1ccc(Br)cc1,-0.9%
Cc1csc2nc(COC(=O)c3ccccc3NC(=O)c3ccc(C(C)(C)C)cc3)cc(=O)n12,0.4%
CCOc1ccc(-c2cc(NC(=O)c3c(F)cccc3F)c(C(=O)OC)s2)cc1,-0.3%
O=C(Nc1cc(OC(=O)C(F)(F)F)c2nonc2c1OC(=O)C(F)(F)F)C(F)(F)F,0.8%
Cc1ccsc1CN(C(=O)c1ccc(Br)cc1)C1CCS(=O)(=O)C1 (stereo unspecified),-0.2%
C(=C\c1ccnc2ccccc12)/c1cccs1,-0.6%
CCOC(=O)c1cnc(NCc2ccc(OC)cc2OC)c2ccccc12,-0.7%
Cc1oc2ccc(O)c(CN3CCN(C)CC3)c2c1C(=O)Nc1cccc(Cl)c1C,-0.1%
CCOc1cc(C#N)c(-n2nnc3c(sc4nc(C)cc(C)c43)c2=O)cc1OCC,-0.3%
COc1cccc(CNC(=O)c2cc(-c3ccc(Cl)cc3)n[nH]2)c1,-1.7%
CCCCN(CC)CCCNC(=O)c1nn(-c2ccc(OC)cc2)c(=O)c2c1c1ccccc1n2C,1.3%
CCOC(=O)c1ccc(NC(=O)Cn2cc(S(=O)(=O)Cc3ccccc3F)c3ccccc32)cc1,6.1%
CCc1nnc2c(Nc3cc(OC)c(Cl)cc3OC)nc3ccccc3n12,-0.1%
COc1ccc(CNC(=O)c2sc3nc4n(c(=O)c3c2C)CCCCC4)cc1,1.3%
Cc1cc(=O)[nH]c2nnc(SCc3ccc(F)cc3)n12,17%
# Next structures.
SMILES,PINK1 modulator
CCOc1[nH]c(/N=C/c2ccccc2)c(C#N)c1C#N,0.4%
Cc1cc(C)cc(NC(=O)CSc2nc(=O)n(Cc3ccccn3)c3c2CCC3)c1,-0.8%
CC(C)c1ccc(NC(=O)CSC2=Nc3ccccc3C3=NC(CC(=O)NCc4cccs4)C(=O)N23)cc1 (stereo unspecified),-0.4%
CC(=O)N1CCc2c(sc3c2c(=O)n(Cc2ccccc2)c(=O)n3Cc2ccc(C)cc2)C1,0.2%
Cc1cccc(NCc2nc3ccccc3n2CCOc2ccccc2C)c1,4.5%
O=c1cc(-c2ccccc2)c2ccc3c(c2o1)CN(Cc1cccc(Cl)c1)CO3,-1.1%
Cc1ccc2nc(COc3ccccc3NC(=O)Nc3ccc(F)c(Cl)c3)cc(=O)n2c1,2.0%
Cc1ccccc1CN1C(=O)c2ccccc2S(=O)c2ccc(C(=O)NCc3ccccc3)cc21 (stereo unspecified),-0.1%
COc1cccc(-c2cc(C(=O)NCCc3ccc(C)cc3)[nH]n2)c1,5.6%
CC(C)(C)c1ccc(S(=O)(=O)c2cn(CC(=O)Nc3ccccc3)c3ccccc3c2=O)cc1,3.2%
CCC(C)NC(=O)c1ccc2nc(CCc3ccccc3)oc2c1 (stereo unspecified),0.0%
Cc1oc2ccc(O)c(CN3CCCC(C)C3)c2c1C(=O)Nc1ccccc1 (stereo unspecified),0.9%

# Another view of 2 compounds above.
molecule | PINK1 modulator
Cc1ccccc1CN1C(=O)c2ccccc2S(=O)c2ccc(C(=O)NCc3ccccc3)cc21 (stereo unspecified) | -0.1%
O=c1cc(-c2ccccc2)c2ccc3c(c2o1)CN(Cc1cccc(Cl)c1)CO3 | -1.1%

# Another view of 4 compounds above:
> CC(=O)N1CCc2cc(S(=O)(=O)NC(Cc3ccccc3)C(=O)Nc3ccc(Cl)cc3)ccc21 (stereo unspecified)
- PINK1 modulator: 4.1%

> CCc1ccc(NC(=O)Cn2c(=O)nc(-c3ccccc3F)c3cc(Cl)ccc32)cc1
- PINK1 modulator: 3.9%

> COc1ccc(CNC(=O)CCCCCn2c(=O)[nH]c3ccccc3c2=O)cc1
- PINK1 modulator: 2.7%

> Clc1ccc(-n2cccc2CN2CCOc3ccc(CN4CCOCC4)cc3C2)nc1
- PINK1 modulator: 0.2%

# The results go on:
SMILES,PINK1 modulator
COc1ccccc1CNC(=O)CCCn1c(=O)c2ccccc2n(CC(=O)Nc2c(C)cc(C)cc2C)c1=O,-0.2%
COc1cc(NC(=O)Cn2cc(C(=O)c3ccc(F)cc3)c(=O)c3ccc(C)nc32)cc(OC)c1,3.4%
Cc1cnc2c(c1SCC(=O)Nc1ccc(F)cc1F)c(=O)n(C)c(=O)n2C,0.5%
CCOC(=O)c1cc(-c2ccc(C)cc2)n(CC(=O)Nc2ccccc2F)c1C,4.1%
Cc1nnc(N2CCC(C(=O)NCc3cccc(Cl)c3)CC2)c2nn(-c3ccccc3)c(C)c12,0.2%
Cc1ccc(NC(=O)Cn2c(=O)n(Cc3nc(-c4ccccc4)no3)c(=O)c3cc4c(cc32)OCO4)c(C)c1,7.0%
CCc1ccc(NC(=O)CN(c2ccc(Cl)cc2)S(=O)(=O)c2ccsc2C(=O)OC)cc1,0.2%
Cc1cccc(OCc2cc(=O)n3c(-c4ccccc4)csc3n2)c1C,6.3%
CCOC(=O)COc1ccc(C)cc1C(=O)c1ccn2nc(-c3ccc(F)cc3)cc2n1,1.5%
Cc1ccc(NC(=O)CC2Oc3ccccc3NC2=O)cc1C (stereo unspecified),3.3%
C1=Nc2ccccc2/C1=C/c1c[nH]c2ccccc12,1.3%
Cc1ccc(CNC(=O)c2cnc(N3CCCCC3)c3ccccc23)cc1,0.4%
CCOC(=O)c1ccc(NC(=O)c2c(NCc3cc(OC)c(OC)cc3OC)sc3c2CCCC3)cc1,1.2%
CCCCc1ccc(NC(=O)CSc2nnc3[nH]c(=O)cc(C)n23)cc1,3.6%
COC(=O)c1ccc(OCC2c3cc(OC)c(OC)cc3CCN2C(=O)C(C)C)cc1 (stereo unspecified),-4.5%
CCOc1ccc(CCNC(=O)c2cc3c(=O)n(CC)c4ccccc4c3s2)cc1OCC,0.3%
Cc1ccc2nc(Cl)c3cc(C(=O)NCCCN4CCC(C)CC4)sc3c2c1,-1.7%
COc1ccc(-c2nc3cc(NC(=O)Cc4ccc(Cl)cc4)ccc3o2)cc1OC,12%
COc1cc(NC(=O)Cn2cc(S(=O)(=O)N3CCC(C)CC3)c3ccccc3c2=O)cc(OC)c1OC,0.7%
CCOc1ccc(C(=O)Nc2c(C)nc(Nc3ccccc3)nc2Nc2ccccc2)cc1OCC,-0.4%
Cc1oc(-c2ccc(C(=O)N(C)Cc3ccccc3)cc2)nc1CN1CCc2ccccc21,2.3%
CCC(=O)N1c2ccccc2CC1C(=O)NCc1ccc(CC)cc1 (stereo unspecified),3.0%
Cc1ccccc1NC(=O)COc1ccc2oc3c(c2c1)CCCC3,-3.6%
CCOC(=O)c1cc(S(=O)(=O)N2CCN(c3cccc(C)c3C)CC2)[nH]n1,3.8%

# Retrieved one by one from the list above:
SMILES,PINK1 modulator
Cc1oc(-c2ccc(C(=O)N(C)Cc3ccccc3)cc2)nc1CN1CCc2ccccc21,2.3%
CCCCc1ccc(NC(=O)CSc2nnc3[nH]c(=O)cc(C)n23)cc1,3.6%
COc1cc(NC(=O)Cn2cc(S(=O)(=O)N3CCC(C)CC3)c3ccccc3c2=O)cc(OC)c1OC,0.7%
CCOc1ccc(C(=O)Nc2c(C)nc(Nc3ccccc3)nc2Nc2ccccc2)cc1OCC,-0.4%
CCOc1ccc(CCNC(=O)c2cc3c(=O)n(CC)c4ccccc4c3s2)cc1OCC,0.3%

# More entries
SMILES,PINK1 modulator
Cn1nc(-c2ccc(OCC(=O)Nc3cccc(C(F)(F)F)c3)cc2)c2ccccc2c1=O,6.7%
COc1ccc(C)cc1NC(=O)Cc1ccc(NC(=O)N2CCCCc3ccccc32)cc1,-1.6%
Cc1ccccc1CNC(=O)c1nn(-c2ccccc2F)nc1CO,-0.6%
CCS(=O)(=O)c1cccc(C(=O)Nc2ccc(-c3nc4ccccc4s3)c(O)c2)c1,8.0%
Cc1ccsc1CCN1C(=O)N(c2ccc(F)cc2)C(=O)C1CC(=O)Nc1ccccc1 (stereo unspecified),1.3%
COc1cc(NC(=O)c2cc(-c3ccc(Cl)c(Cl)c3)on2)cc(OC)c1OC,4.0%
Cc1ccc(C(=O)NCCn2c(C)cc3ccccc32)cc1C,2.4%
Cc1nnc2c3ccccc3nc(Nc3ccccc3C(=O)O)n12,-1.0%
CC(=O)c1c(C)oc2ccc(N(C(=O)Oc3ccccc3)S(=O)(=O)c3ccc(Br)cc3)cc12,0.3%
COc1ccc(Cl)cc1CNCCSc1nnnn1-c1ccccc1,1.1%
O=C(c1cc2c(s1)-c1ccccc1OC2)N1CCN(c2ccc(F)cc2)CC1,0.4%
CCCn1cc(S(=O)(=O)c2cccc(Cl)c2)c(=O)c2cc(F)c(N3CCOCC3)cc21,12%
O=C(O)c1ccc(Nc2nc(-c3ccccc3)c3cc(Br)ccc3n2)cc1,0.5%
Cc1ccc(NC(=O)C2CCCN(S(=O)(=O)c3c(C)n[nH]c3C)C2)cc1C (stereo unspecified),0.5%
Cc1cccc(C(=O)Nc2c(C(=O)N3CCN(c4ccc(F)cc4)CC3)oc3ccccc23)c1,-3.6%
COc1cc(CN(C(=O)COc2ccccc2Cl)c2ccccn2)cc(OC)c1OC,1.5%

# Screening results as filed in PubChem BioAssay.

# These rows are one share of the data (hit frequency here may not be typical).
